HPGD inh – inhibitors of human 15-hydroxyprostaglandin dehydrogenase (HPGD); P15428; Potency, µM, without a hit: top-dose activity change, negative = inhibition, most hits filed as inhibitors; purified HPGD, NADH fluorescence kinetic, PGE2 substrate; AID 894; 150,000 tested, 4.3% active; active = well fitted inhibition curve with a large enough effect (not every such curve was filed as active); inconclusive = small, poorly fitted or top-dose-only effect, or another doubt; inactive = no such curve, though single readings can be large or run the other way;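 also: top concentration of the series not given in the record; plate controls included wells without enzyme; inactives centre near -10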
Target sequence (P15428 whole entry, looked up): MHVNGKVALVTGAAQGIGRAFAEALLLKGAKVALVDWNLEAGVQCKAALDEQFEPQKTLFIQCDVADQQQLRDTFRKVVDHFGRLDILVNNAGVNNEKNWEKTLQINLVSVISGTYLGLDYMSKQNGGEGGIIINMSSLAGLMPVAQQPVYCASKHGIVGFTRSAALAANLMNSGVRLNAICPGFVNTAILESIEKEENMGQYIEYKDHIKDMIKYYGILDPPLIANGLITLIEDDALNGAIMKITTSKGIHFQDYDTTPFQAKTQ
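20 nM HPGD preincubated 15 min at room temperature with compound in 50 mM Tris-HCl pH 8, 0.01% Tween 20. Started with 1 mM NAD+ and 30 uM prostaglandin E2; NADH fluorescence (360/450 nm) read 5 times over 30-s intervals, last minus first.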
Active calls of the source: *; ? = inconclusive; & = joins results of further samples; [ ] = dose if it differs, or a comment. % is scaled to controls: 0 for no effect and ±100 for the full control effect; potency is read from the fitted curve at half-maximal effect. A portion of the library. The share of hits here may be higher or lower than overall.

HPGD inh | Compound
-5.8% | CCn1cc(C2=NOC(C(=O)Nc3c(C)nn(Cc4ccc(F)cc4)c3C)C2)c(C)n1 (configuration not stated)
4.2% | CCCNc1nc2c(c(=O)[nH]c(=O)n2C)n1Cc1ccc(F)cc1
-15.1% | CC1(C(=O)O)Cc2ccccc2C(=O)O1 (configuration not stated)
-13.7% | Cc1cc(C(=O)CC#N)c(C)n1CC(F)(F)F
-2.0% | CC1CN(C(=O)N2c3ccccc3Sc3ccccc32)CC(C)O1 (configuration not stated)
14.1µM* | Clc1ccccc1-c1nn2c(Cn3cnc4ccccc43)nnc2s1
-12.1% | CCN(CC)c1ccc(/C=C(\C#N)C(=O)c2ccc(Br)cc2)cc1
-23.2% | O=C(Nc1ccc(Cl)cc1)N1CCC(c2nc(-c3cccs3)no2)CC1
-5.3% | CCOC(=O)C1CCCN(C2CC(=O)N(c3cccc(C(F)(F)F)c3)C2=O)C1 (configuration not stated)
-11.9% | O=C(NC1CCCCC1)C1CCN(c2nnnn2-c2ccccc2)CC1
? | COc1ccc(C(=O)Nc2nc(C)c3cc4c(cc3n2)OCO4)cc1
-9.8% | COC(=O)c1cn(NC(=O)c2ccncc2)c(=O)c2ccccc12
-8.4% | COc1ccc(/C(O)=C/c2nc3ccc(C(=O)NCCc4cccc(C)c4)cc3[nH]c2=O)cc1OC
-7.8% | Cc1occc1C(=O)NNS(=O)(=O)c1ccc(Cl)cc1
-0.1% | CCN(CCCNC(=O)CCn1c(=O)[nH]c2ccccc2c1=O)c1ccccc1

Next section
HPGD inh | Compound
-3.4% | CC(C)(C)c1ccccc1OCCOCCNCc1ccccc1
-21.8% | C=CCn1c(COc2cccc(C)c2C)nnc1SCC(=O)N1CCN(c2ccccc2)CC1
-14.8% | COc1ccc(N2CCN(Cc3nc(-c4ccc(Cl)cc4Cl)no3)CC2)cc1
-1.0% | CC(C(=O)Nc1ccc(F)c(F)c1F)N(C)CC(=O)Nc1ccccc1Br (configuration not stated)
-6.2% | CCCC(=O)NC(=S)Nc1ccccc1N1CCOCC1
148.4%[activator] | C#CCn1c(=NC(=O)c2ccc(Cl)s2)sc2cccc(OC)c21
-7.2% | CC(NC(=O)C1CCCN(S(=O)(=O)c2cnc[nH]2)C1)c1ccccc1 (configuration not stated)
-7.2% | O=C(c1csc2c1CCCC2)N1CCN(c2ccccc2)CC1
-2.6% | Cc1ccc(CNC(=O)/C=C/c2c(Cl)cccc2Cl)cc1
-12.2% | COCCn1nnnc1C(c1cccs1)N1CCN(c2nc3ccccc3s2)CC1 (configuration not stated)
? | COc1cc(OC)c(C(=O)Nc2ccc(S(=O)(=O)Nc3ncccn3)cc2)cc1OC
-21.1% | O=C(/C=C/c1ccco1)Nc1ccccn1
-9.2% | COC(=O)c1ccccc1NC(=O)Nc1cc(C)cc(C)n1
0.4% | O=C(c1ccccc1)N(c1ccccc1)C1C=CS(=O)(=O)C1 (configuration not stated)
-12.4% | COc1cc(S(=O)(=O)N2CCCCC2)ccc1NC=O

Remaining list, next part:
HPGD inh | Compound
15.8µM* | Clc1cccc(Nc2c3c(nc4ncnn24)CCC3)c1
? | Cn1c(=O)cc(OCC(=O)Nc2ccccn2)c2ccccc21
-6.7% | CCN(CC)c1ccc(N2C(=O)/C(=C\c3cccs3)SC2=S)cc1
3.4% | c1ccc(CN2CCC3(CCCc4ccccc43)CC2)cc1
-10.0% | COc1ccc(Cl)cc1-n1c(C)cc(C(=O)OCC(=O)N2CC(=O)Nc3ccccc32)c1C
-9.4% | CCn1c(NCc2cc(OC)ccc2OC)nc2ccccc21
-19.2% | Cc1cccc(OCC(O)CN2C(C)(C)CC(O)CC2(C)C)c1 (configuration not stated)
5.01µM* | CCOC(=O)c1ccc2c(c1)nc(SCC(=O)N1CCCCC1)n2CC
-8.5% | Cc1ccc(-c2noc(CCCN3C(=O)c4ccccc4C3=O)n2)cc1
-7.3% | O=C(O)Cc1nn(Cc2ccc(Br)cc2F)c(=O)c2ccccc12
-11.5% | CCC(C)NC(=O)CN(c1ccc2c(c1)OCO2)S(=O)(=O)c1c(C)n[nH]c1C (configuration not stated)
-17.6% | Cc1ccc(/C=N/NC(=S)NC2CCS(=O)(=O)C2)cc1 (configuration not stated)
-18.1% | COc1ccc(OC)c2sc(NC(=O)c3ccc(S(=O)(=O)N(C)C)cc3)nc12
3.5% | COc1ccccc1-n1cnnc1SCC(=O)Nc1nc(C)c(Cl)cc1Cl
-8.6%&-7.7%&-3.1%&-9.0% | c1cnc2c(c1)ccc1cccnc12

Marked active in HPGD inh, of those listed so far:
HPGD inh | Compound
14.1µM* | Clc1ccccc1-c1nn2c(Cn3cnc4ccccc43)nnc2s1
15.8µM* | Clc1cccc(Nc2c3c(nc4ncnn24)CCC3)c1
5.01µM* | CCOC(=O)c1ccc2c(c1)nc(SCC(=O)N1CCCCC1)n2CC

Going on with the list:
HPGD inh | Compound
-17.0% | Cc1ccc(S(=O)(=O)Oc2ccc(C)cc2/C=N/N=C2\NC(=O)C(C)S2)cc1 (configuration not stated)
-4.7% | O=c1c2ccc(Cl)cc2[nH]c(=S)n1Cc1cccnc1
-4.6% | C=CCNC(=O)Nc1ccc(OCC)cc1
-10.8% | O=C(NCc1ccc(F)cc1)c1ccc(S(=O)(=O)Nc2cccc(C(F)(F)F)c2)cc1
-25.6% | CCSc1cc(C2C(C#N)=C(N)OC(C)=C2C(=O)OC)c(C)o1 (configuration not stated)
-12.2% | O=C(NC1CCN(Cc2ccccc2)CC1)C1CCCN(c2nnc(-n3cccc3)s2)C1 (configuration not stated)
-11.7% | Cc1onc(C(=O)N2CCN(c3ccccc3F)CC2)c1-c1ccccc1Cl
-11.7% | CCCCOC(=O)c1ccc(NC(=O)C(=O)NCc2ccncc2)cc1
? | O=S(=O)(Nc1nc2ccccc2nc1Nc1cccc(S(=O)(=O)N2CCCCC2)c1)c1ccccc1
-0.6% | C[C@]12CCC3c4ccc(O)cc4CCC3C1CC(O)C2O (some centres not stated)
-5.6% | COc1ccc(/C=N/NC(=O)c2ccc(Cn3cc([N+](=O)[O-])cn3)o2)c(OC)c1C
-16.7% | Cc1ccccc1Oc1cc(-n2ncc(Cl)c(Cl)c2=O)ncn1
-4.4% | CC(C)CN1C(=O)CC(Sc2ccccc2C(=O)O)C1=O (configuration not stated)
-13.8% | CCOc1ccc(CCNC(=O)CSCc2ccc(C)cc2)cc1OCC
-21.1% | CCn1c(=O)cc(OCC(=O)NCC2CCCO2)c2ccccc21 (configuration not stated)

Continuation:
HPGD inh | Compound
-5.9% | Cc1csc(C2=C(O)CN(c3ccc4c(c3)OCCOCCOCCOCCO4)C2=N)n1
28.2µM* | O=C(O)c1ccc(CSc2nc3ccccc3o2)cc1
-29.0% | COc1ccc(Nc2nnc(SC(C(=O)Nc3ccc(OC)c(Cl)c3)c3ccccc3)s2)cc1 (configuration not stated)
-1.7% | O=C(CSc1ncn[nH]1)NCCOc1ccccc1
-18.5% | COc1ccc(OCCOC(=O)c2ccc(-n3cnnn3)cc2)cc1
-7.8% | O=C1c2ccccc2C(=O)N1OCCOCCOCCBr
-2.5% | COc1ccccc1C(=O)N(NC(=O)Oc1ccccc1)C(C)(C)C
-3.4% | COc1ccc(NC(=O)C(NC(=O)CC2NC(=O)NC2=O)c2ccccc2)cc1 (configuration not stated)
-8.9% | O=C(C1CCCO1)N(c1cccc(Cl)c1)C1C=CS(=O)(=O)C1 (configuration not stated)
-12.9% | COC(C)(C)[C@H](O)COc1c2ccoc2cc2oc(=O)ccc12
-21.2% | CCOC(=O)n1c(=O)oc2cc(S(=O)(=O)N3CCCCC3)ccc21
-8.5% | C=CCNC(=O)Nc1ccc2oc(C)nc2c1
-9.0% | CC(C)C[C@@H](CC(=O)N[C@@H](CCC(=O)O)CC(=O)O)NC(=O)[C@@H]1CNCC[C@H]1NC(=O)C[C@H](CCCN)NC(=O)C[C@H](Cc1c[nH]c2ccccc12)NC(=O)[C@@H]1CNCC[C@H]1N
? | O=C(COC(=O)c1cc(-c2ccco2)nc2ccccc12)NCc1ccccc1
-8.4% | CCOP(=O)(OCC)C(NC(=O)Nc1ccc(C)c(Cl)c1)c1ccccc1 (configuration not stated)

A draw from above in order of formula weight, falling.
HPGD inh | Compound
-9.0% | CC(C)C[C@@H](CC(=O)N[C@@H](CCC(=O)O)CC(=O)O)NC(=O)[C@@H]1CNCC[C@H]1NC(=O)C[C@H](CCCN)NC(=O)C[C@H](Cc1c[nH]c2ccccc12)NC(=O)[C@@H]1CNCC[C@H]1N
-29.0% | COc1ccc(Nc2nnc(SC(C(=O)Nc3ccc(OC)c(Cl)c3)c3ccccc3)s2)cc1 (configuration not stated)
-1.7% | O=C(CSc1ncn[nH]1)NCCOc1ccccc1

Going on with the list.
HPGD inh | Compound
-6.4% | CC1CC(C)CN(C(=O)CNS(=O)(=O)c2ccc(Br)s2)C1 (configuration not stated)
-4.9% | CN(C)c1nc(OCCOC(=O)COc2ccc(Cl)cc2Cl)nc(N(C)C)n1
1.2% | COc1cc(CC(=O)NCc2ccccn2)cc(OC)c1OC
-0.3% | CN(Cc1ccccc1)C(=O)CNC(=O)Cn1cnc2ccccc2c1=O
-14.2% | CC(C)CCN1CCNC(=O)C1CC(=O)Nc1ccc(F)cc1 (configuration not stated)
-19.6% | O=C(c1ccco1)N(CCC(c1ccccc1)c1ccco1)Cc1ccccc1 (configuration not stated)
-7.6% | C=CCNC(=S)NNC(=O)c1cccn(Cc2ccc(Cl)c(Cl)c2)c1=O
-4.5% | CC(OC(=O)CCCCCN=C1NS(=O)(=O)c2ccccc21)C(=O)Nc1cc(Cl)cc(Cl)c1 (configuration not stated)
1.8% | CCOC(=O)C1CCN(C(=O)c2ccc(Cl)c(Cl)c2)CC1
-11.1% | COc1ccc(N2CCN(CCNC(=O)CCN3C(=O)COc4ccccc43)CC2)cc1
-19.0% | O=C(CSc1ncn[nH]1)Nc1nc(-c2ccccc2)cs1
-15.4% | O=C(c1ccc(Br)o1)N1CCN=C1SCc1cccc(F)c1
-7.9% | O=C1CCc2cc(S(=O)(=O)N3CCN(Cc4ccc5c(c4)OCO5)CC3)ccc2N1
? | CCN(C(C)=O)c1nc(CSc2nnc(NC(C)C)s2)cs1
-4.2%&-10.8%&-11.7% | C[C@H]1O[C@@H](O[C@H]2[C@@H](O)C[C@H](O[C@H]3[C@@H](O)C[C@H](O[C@H]4CC[C@@]5(C)[C@H](CC[C@@H]6[C@@H]5C[C@@H](O)[C@]5(C)[C@@H](C7=CC(=O)OC7)CC[C@]65O)C4)O[C@@H]3C)O[C@@H]2C)C[C@H](O)[C@@H]1O

Later entries:
HPGD inh | Compound
-11.9% | CCOC(=O)C(Cc1ccccc1)NC(=O)CNC(C)=O (configuration not stated)
-7.5% | C=CCOC(=O)C1=C(C)N=C2SCCC(=O)N2C1c1cccs1 (configuration not stated)
-25.3% | S=C(NCCc1ccccc1)NC1CCCCCC1
-5.9% | COc1cc(OC)cc(-c2cc(NC(C)=O)n[nH]2)c1
-10.2% | COc1ccc(OC)c(C(=O)c2ccccc2)c1
-15.6% | CC(=O)c1cc2c(=O)c3cc(C)ccc3oc2nc1C
-7.2% | COc1ccc(OC)c(S(N)(=O)=O)c1
-2.5% | CCOC(=O)c1c(C)nc2ccc(Cl)cc2c1-c1ccccc1
-3.0% | Cc1nc2cc(NC(=O)Nc3ccc(N4CCOCC4)cc3)ccc2n1C
? | COC(=O)c1ccc(C(=O)OC)c(NC(=O)CN(c2ccc3c(c2)OCO3)S(C)(=O)=O)c1
? | CCc1ccc(C(C)NC(=O)C2(C)CC2(Br)Br)cc1 (configuration not stated)
-6.7% | Cc1c(NC(=O)CCSc2ccc(Cl)cc2)c(=O)n(-c2ccccc2)n1C
-2.7% | COc1ccccc1NC(=O)C(C)NS(=O)(=O)c1ccc(F)cc1 (configuration not stated)
-8.7% | COc1ccc(Cn2c(CCC(=O)Nc3ccc(C)cc3)nc3cccnc32)cc1
-14.9% | O=C1CCc2nc3ccccc3c(=O)n2N1

An excerpt of these results, tab-delimited:
smiles	HPGD inh
CCOC(=O)C(Cc1ccccc1)NC(=O)CNC(C)=O (configuration not stated)	-11.9%
C=CCOC(=O)C1=C(C)N=C2SCCC(=O)N2C1c1cccs1 (configuration not stated)	-7.5%
S=C(NCCc1ccccc1)NC1CCCCCC1	-25.3%
COc1cc(OC)cc(-c2cc(NC(C)=O)n[nH]2)c1	-5.9%

Other results:
HPGD inh | Compound
? | CCn1c(CNc2nc(-c3ccccc3)cs2)nnc1SCC(=O)NCc1ccco1
1.5% | CNC(=O)Nc1ccc(Cl)cc1
-26.8% | Cc1nn(-c2cccc(C(F)(F)F)c2)c(Cl)c1/C=N/Nc1cccc(C(=O)O)c1
-4.2% | COc1ccc(-n2c(=O)c(C)nc3cnc(Oc4cccc(Cl)c4)nc32)cc1
-20.6% | O=C(NCCN1CCOCC1)Nc1ccccc1
-2.4% | Nc1ccc2oc3ncccc3c(=O)c2c1
-6.8% | COCCn1c(=O)c(-c2ccc(OC)cc2)nc2cnc(Nc3cccc(OC)c3)nc21
-8.3% | COc1cc(Cc2nc3ccc(S(=O)(=O)N4CCOCC4)cc3[nH]2)cc(OC)c1OC
-8.1% | CCN(CC)CCCn1c(=S)[nH]c2ccc(Cl)cc2c1=O
-25.1% | Cc1cc(C)n2nc(SCc3nnc(SCCCCl)o3)nc2n1
-17.8% | CC(=O)c1c(NCCc2ccccc2)cc(C)oc1=O
-18.9% | CC1CN(C(=O)CSc2ncnc3sccc23)CC(C)O1 (configuration not stated)
-6.6% | COc1ccc(C(=O)N/N=C/c2cn[nH]c2-c2ccc(OC)cc2OC)cc1
-7.7% | CC1(C)CC(=O)C(C2C3=C(CC(C)(C)CC3=O)Oc3ccccc32)=C(O)C1 (configuration not stated)
-1.0% | CCN(c1ccccc1)S(=O)(=O)c1ccc(Cl)c(NC(=O)CSc2n[nH]c(N)n2)c1
-11.1% | CCC1SC(N)=NC1=O (configuration not stated)
-4.8% | CC(Cc1ccccc1)NC(=O)c1ccc([N+](=O)[O-])cc1 (configuration not stated)

High-throughput results as filed in PubChem BioAssay.
